CapD inh = CapD enzyme inhibition | purified CapD enzyme, fluorescence intensity read-out; active compounds read low; some hits fall short of the stated cut | z-score (test concentration not listed) | hit rate 0.23% among 140,000;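 active means z-score under -4 in either of two replicates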;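 further: stock transfer was 100 nL into about 40 µL; score is relative to mean and spread of the plate; one replicate is shown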
AID504770 = growth inhibitors of E. coli YBA685 in a screen for V. cholerae RctB (chromosome II replication) inhibitors | E. coli YBA685 rctB-dependent plasmid, OD600 growth, 3 h; active compounds read low | z-score (no concentration beside the values) | hit rate 0.27% among 130,000;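 active means z-score under -2 on both plates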;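 further: wells of about 30 µL received 100 nL stock; score is relative to mean and SD of the test wells; the first replicate is given; strong numbers were not always called active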
Starred values were filed as active, the others as inactive; . = not tested or not shown.

Values in the order: AID504770 | CapD inh
- O=S(=O)(c1ccccc1)c1ccc(I)cc1
  -1.2 | -0.11
- COc1cc(/C=C2/SC(=Nc3ccccc3Cl)NC2=O)cc(OC)c1OC
  . | 0.09
- O=C(Nc1ccc(N2CCOCC2)cc1)c1ccc2c(=O)n3c(nc2c1)CCC3
  1.6 | .
- C#CCSc1nc(C)cc(C(=O)OCC)c1C#N
  1.4 | 4.8
- Cc1ccc2oc(-c3ccc(Cl)cc3)nc2c1
  -1.3 | 23
- Cc1ccc(-c2nnc(NC(=O)c3cc4c([nH]c5ccccc54)c(C)n3)s2)cc1
  0.45 | -0.88
- N#CC1=C(SCC(=O)Nc2ccc(Br)cc2)NC(=O)C(C#N)C12CCCCC2 (stereo not drawn)
  . | 0.09
- CN(Cc1ccccc1)C(=O)c1cc2c(=O)oc3ccccc3c2s1
  -0.9 | 0.49
- OC1CCCc2c(OCc3coc(-c4cccs4)n3)cccc21 (stereo not drawn)
  0 | .
- Cc1cnc(NC(=O)c2cccc(OC(F)F)c2)s1
  1.7 | .
- CC(NC(=O)Oc1ccccc1)C(c1cccs1)N1CCOCC1 (stereo not drawn)
  -0.55 | -1
- O=C1CCN(CC(=O)Nc2ccc(-c3ccccc3)cc2)CC1
  -0.4 | .
- C=CC#CC(C)(C)c1ccc(O)c(C)c1
  0.6 | .
- Cc1nn(-c2ccccc2)c(C)c1-c1nc(-c2ccc(C(C)(C)C)cc2)no1
  0.2 | 0.32
- O=C1COc2ccc(C(=O)CSc3nnc(Cc4cccs4)n3Cc3ccco3)cc2N1
  -1.6 | .
- CSc1sc(-c2ccnc(SCCS(C)(=O)=O)n2)c(-c2ccccc2)c1C#N
  . | 80
- Cc1ccc(Br)cc1[N+](=O)[O-]
  . | -0.04
- CCCCCCCCCCc1ccc(C(C)=O)cc1
  . | 0.76
- COc1ccc(NC(=S)NNC(=O)c2ccccc2[N+](=O)[O-])cc1
  . | -0.18
- COc1ccc(NC(=O)C2=C(C)NC(=O)NC2c2cc(OC)c(OC)c(OC)c2)cc1 (stereo not drawn)
  . | -0.48
- CCOC(=O)c1c(-c2ccccc2)csc1N
  1.1 | 0.67
- O=C(Nc1nnc(-c2ccco2)o1)C1=COCCO1
  -1.6 | .
- NC(=O)c1c(/N=C/c2ccccc2Cl)sc2c1CCCC2
  0.55 | -0.51
- CCN(CC)c1nc(C)nc2sc(C(=O)N3CCN(c4ccccc4F)CC3)c(C)c12
  . | -0.25
- Cc1ccc(S(=O)(=O)N(C#N)c2nc(C)cc(C)n2)cc1
  -1.5 | .
- CC1(C)CC(=O)C=C(NNC(=O)c2cccnc2)C1
  1.3 | .
- O=C(Nc1ccc2nc(-c3ccccn3)[nH]c2c1)c1ccccc1F
  -1 | 1.6
- CC(=O)NC(c1ccco1)c1c(O)ccc2ccccc12 (stereo not drawn)
  0.1 | 29
- O=S1(=O)CCC(Nc2ccccc2)C1 (stereo not drawn)
  0 | .
- CCN1CCCC1CNC(=O)c1ccc(N(C)S(=O)(=O)c2ccc(C)cc2)cc1 (stereo not drawn)
  0.95 | .

The listing continues.
Values in the order: AID504770 | CapD inh
- CS(=O)(=O)c1cccc(C(=O)NCCSCc2cc3cccc4c3n(c2=O)CCC4)c1
  . | 1.3
- O=C(Nc1ccc(-c2cn3c(n2)SCC3)cc1)C1CC1
  -0.3 | -0.22
- NC(N)=NC(N)=NCc1ccccc1
  -0.35 | 0.16
- Cc1ccccc1Cn1c2ccccc2c2cn[nH]c(=O)c21
  0 | 0.7
- COc1ccc(C(O)C(F)(F)F)cc1 (stereo not drawn)
  -0.4 | -0.28
- COC(=O)C(NC(=O)c1cc(=O)n(-c2ccccc2)[nH]1)c1ccccc1 (stereo not drawn)
  . | 0.13
- O=C(O)CCC(=O)N1N=C(c2ccccc2)CC1c1ccc2nccnc2c1 (stereo not drawn)
  -0.6 | .
- COc1c2occc2c(OC)c2c(=O)cc(C(F)(F)C(F)(F)F)oc12
  -0.5 | 0.46
- O=C(CC1C(=O)N2CCNC2=C1C(=O)c1ccc(Cl)cc1)Nc1ccccc1 (stereo not drawn)
  -0.3 | .
- Clc1ncc(CC(Cc2cnc(Cl)s2)c2ccnc3ncnn23)s1
  . | -0.015
- COc1ccc(N=c2ssc3c2-c2ccc(C)cc2NC3(C)C)c(OC)c1
  . | -0.49
- COC(=O)/C(=C/N(C)C)Sc1cc(C)c(Cl)cc1Cl
  2.1 | -0.46
- COc1cc(CN2CCSCC2)ccc1O
  -0.45 | -0.31
- Cc1ccc(SC(=O)c2cnn(C)c2-n2cccc2)cc1
  -0.55 | 0.44
- COc1cccc(NC(=O)C(c2ccccc2)N2CC(C)OC(C)C2)c1 (stereo not drawn)
  2.9 | .
- CC1CCCN(C(=O)CSc2nc3cc(Cl)ccc3o2)C1 (stereo not drawn)
  -1.1 | .
- OCCNC1CCCc2ccccc21 (stereo not drawn)
  -0.5 | .
- O=C(Nc1ccc(Oc2cc(C(F)(F)F)cc(C(F)(F)F)c2)cc1)Nc1ccc(OC(F)(F)F)cc1
  . | 0
- Cc1ccc2nc(SCC(=O)NC(N)=O)[nH]c2c1
  -0.5 | .
- C/C(=C\C(=O)c1ccccc1)NCc1ccccc1
  0.35 | -0.88
- N#Cc1ccc(C#CCOC(=O)Nc2ccccc2)cc1
  -0.1 | 0.16
- COc1cc2c(cc1OC)C(C)N(C(=O)CN1C(=O)C3C4C=CC(C4)C3C1=O)CC2 (stereo not drawn)
  . | 0.59
- Clc1ncnc2c1ncn2C1CCCCO1 (stereo not drawn)
  -0.05 | 1
- Cc1cc(C(=O)CSCCCn2c(=O)[nH]c3ccccc32)c(C)n1C1CC1
  1 | .
- CCN(C(=O)C1CCCO1)C1CCCCC1 (stereo not drawn)
  -0.75 | 0.055
- CCN1C(C)=C(C)S/C1=C1\SC(=S)N(C2CCCCC2)C1=O
  -1.8 | .
- CC(C)Oc1ccc(C2Oc3ccc(Br)cc3C3CC(c4ccccc4)=NN32)cc1 (stereo not drawn)
  . | -0.025
- CCOC(=O)c1cc(C(C)(C)C)oc1CN
  -0.55 | .
- CCc1nc2ccccc2c2c1C(=O)N(CCSCc1c(Cl)cccc1Cl)C2=O
  . | 0.68
- Cn1c(=O)c2c(nc(N3CCCCCC3)n2Cc2cccc(Br)c2)n(C)c1=O
  . | 0.43

Next section.
Values in the order: AID504770 | CapD inh
- Cc1ccc(NC(=O)NC2CC(=O)N(c3ccc4c(c3)OCCO4)C2)cc1C (stereo not drawn)
  -0.55 | .
- Cn1nnnc1Sc1c(-c2ccccc2)c2ccc(Cl)cc2[nH]c1=O
  0.85 | 13
- Cc1ccc(C(=O)Oc2cccc(Cl)c2)cc1
  -0.8 | -0.25
- CCOC(=O)CNc1ncnc2onc(-c3ccc(F)cc3)c12
  0.5 | 0.02
- Cc1cccc(NC(=O)Cn2cnc3c2c(=O)n(C)c(=O)n3C)c1C
  . | 0.43
- O=C(O)CCC(=O)N1N=C(c2c(-c3ccccc3)c3cc(Cl)ccc3[nH]c2=O)CC1c1ccccc1 (stereo not drawn)
  . | 0.41
- Cc1sc2ncnc(SCC(=O)Nc3sc4c(c3C#N)CCC4)c2c1C
  . | -0.82
- C=CCOc1ccc(Oc2nc(N(C)C)nc(N(C)C)n2)nn1
  . | -0.54
- O=C1CS/C(=N\N=C/c2ccccc2)N1
  0.35 | .
- COC(=O)c1c(C)oc2ccc(OC)cc12
  2.1 | .
- Cc1nn(-c2ccccc2)c2nc(-c3ccccc3)cc(C(=O)NCc3ccco3)c12
  0.4 | .
- Cc1cc(C)n(CCc2nc3c4ccccc4n(CC(=O)Nc4ccc(Cl)cc4F)c(=O)n3n2)n1
  -1.1 | -1.2
- O=C(CN(Cc1ccco1)C(=O)c1nsc(Cl)c1Cl)NC1CCCCC1
  1.5 | .
- CSc1nc(N)nc(N2CCCCC2)n1
  . | -0.22
- N#CCn1c(Cc2ccccc2)nc2ccccc2c1=O
  0.7 | .
- O=C(NC1CCCC1)c1ccc(S(=O)(=O)N2CCCCCC2)cc1
  0.85 | 0.47
- NC(=O)COC(=O)C12CC3CC(CC(Br)(C3)C1)C2
  -0.2 | -1.1
- CN(C)C(=O)CCc1nc2ccccc2n1-c1ccccc1
  -0.4 | .
- Cc1sc2nc(CN3CCCC3)nc(Sc3nnnn3C3CC3)c2c1C
  0.2 | .
- COC(=O)Cc1c(C)c2ccc(O)cc2oc1=O
  -0.15 | 75
- O=C(O)c1ccc(CCO)s1
  1.2 | 0.07
- CSc1nc(N)nc(SCC(=O)Nc2nc(C)cs2)c1C#N
  . | -0.32
- N#CC1=C(SCC(=O)Nc2nccs2)NC(=O)CC1c1cccs1 (stereo not drawn)
  . | 26
- CCCCN(CCCC)CC(O)CN(c1ccccc1OC)S(=O)(=O)c1ccc(C)cc1 (stereo not drawn)
  . | -0.64
- O=C(Nc1cccc(Cl)c1)c1cc2c(s1)-c1ccccc1S(=O)(=O)C2
  -0.3 | -0.2
- Cc1nnc(Sc2ccc([N+](=O)[O-])c(Sc3nnc(C)s3)n2)s1
  . | -1.2
- Cc1ccc2c(c1)c1c(n2CC(O)CN2CCCCC2)C(=O)CCC1 (stereo not drawn)
  -0.35 | .
- Cc1ccc(CN(C)C(=O)CSc2nc(N)cc(N)n2)cc1
  -0.6 | .
- CCc1ccc(C2(O)CC(C(F)(F)F)=NN2C(=O)c2ccccc2C)cc1 (stereo not drawn)
  . | -1.1
- Cc1ccccc1-c1c(C)oc2cc(O)ccc2c1=O
  0.2 | 61

Next results.
Values in the order: AID504770 | CapD inh
- Cc1c(/C=C(\C#N)C(=O)O)cc(C#N)n1C
  0.5 | .
- CCOc1ccc(N(C)S(=O)(=O)c2ccc3[nH]cc(C(=O)N4CCc5ccccc5C4)c(=O)c3c2)cc1
  . | 1.1
- COc1ccc(C2NC(=O)N(C)C(C)=C2C(=O)Nc2ccccc2)cc1 (stereo not drawn)
  0.55 | 0.2
- O=C(CNS(=O)(=O)c1cccs1)N1CCCCC1
  -1.8 | 2.3
- CCC12CC3CC(Br)(C1)CC(C(=O)O)(C3)C2 (stereo not drawn)
  -0.05 | -0.18
- C=CCOc1cccc(C(=O)N2CCN(C)CC2)c1
  -0.35 | 1.1
- O=C(CSc1ncccn1)NN=C1CCCCCC1
  0.25 | .
- COC(=O)C1=C(C)NC(=O)CC1C(=O)Nc1ccccc1 (stereo not drawn)
  -0.65 | .
- CC(C)(C)c1ccc(Oc2ccc(NC(=O)CSCC(=O)O)cn2)cc1
  -0.35 | 0.2
- N#Cc1c(/N=C/c2cc(Cl)cc(Cl)c2O)sc2c1CCC2
  -0.55 | 0.01
- CCN(CC)C(=O)COc1ccc2ccc(=O)oc2c1
  0.05 | .
- CN(Cc1ccccc1)c1nc(-c2ccccc2)no1
  -0.25 | 0.56
- COc1cc(C(=O)CSc2cccc[n+]2[O-])cc(OC)c1OC
  -0.15 | .
- CC(=O)OCCn1c(=O)c2cc3c(=O)n(CCOC(C)=O)c(=O)c3cc2c1=O
  0.05 | -0.07
- O=C(Nc1nncs1)c1ccccc1NS(=O)(=O)c1cccs1
  -0.35 | .
- COc1ccc(-c2cc(C3CC3)nc3sc(C(N)=O)c(N)c23)cc1
  -0.7 | 0.64
- CC(=O)Nc1ccc(S(=O)(=O)NCc2ccc(S(N)(=O)=O)cc2)cc1
  . | -0.71
- CCN(CC)S(=O)(=O)c1ccc(C)c(C(=O)Nc2cc(C)on2)c1
  1.3 | -0.9
- CC1=CC(=C2C(=O)NC(=S)NC2=O)C=C(C)N1CCc1ccccc1
  -0.35 | .
- CC1(C)CC(=O)C2=C(C1)OC(N)=C(C#N)C2c1c2ccccc2cc2ccccc12 (stereo not drawn)
  . | -0.11
- CC(O)c1cccc(NC(=O)c2cnn3c2NC(c2cccs2)CC3C(F)(F)F)c1 (stereo not drawn)
  1.5 | 0.48
- CC(C)(C)NCC(O)Cn1c2ccccc2c2ccccc21 (stereo not drawn)
  . | 6
- CCOC(=O)C1=c2s/c(=C/c3ccc(O)cc3)c(=O)n2C(N)=C(C#N)C1c1ccc(O)cc1 (stereo not drawn)
  . | 0.005
- CS(=O)(=O)C1=NSC2=NC(=O)/C(=C\c3ccco3)C(=N)N21
  -0.05 | -3.3
- CCOC(=O)c1c[nH]n(-c2ccccc2)c1=O
  0.3 | 0.01
- Cc1cc2c(cc1C)N(CC(=O)c1ccccc1)C(C)(C)c1ssc(=S)c1-2
  . | -0.21
- O=C1CCC(=O)N1CNc1ccccn1
  -0.95 | 0.22
- O=C(Nc1ccccc1)c1ncoc1-c1ccccc1
  . | -0.46
- CCOc1ccc(N2C(=O)/C(=C\c3cc(OC)c(OC)cc3OC)S(=O)(=O)C2c2cccc([N+](=O)[O-])c2)cc1 (stereo not drawn)
  . | -0.28
- CC(C(=O)O)n1c2ccccc2c2cnn(C)c(=O)c21 (stereo not drawn)
  -0.9 | -0.67

2 entries picked at random from the list so far:
Values in the order: AID504770 | CapD inh
- CCOC(=O)C1=c2s/c(=C/c3ccc(O)cc3)c(=O)n2C(N)=C(C#N)C1c1ccc(O)cc1 (stereo not drawn)
  . | 0.005
- CS(=O)(=O)C1=NSC2=NC(=O)/C(=C\c3ccco3)C(=N)N21
  -0.05 | -3.3

(more compounds)
Values in the order: AID504770 | CapD inh
- Cc1cc(C)nc(OCc2ccccc2Cl)n1
  . | -0.35
- CCOC(=O)c1ccc(S(=O)(=O)N2CCN(CN3C(=O)CCC3=O)CC2)cc1
  1.3 | .
- CCN1CCN(Cc2ccc(N)cc2)CC1
  -0.45 | -0.15
- CCC(=O)NCc1ccc(-c2nc3ncccc3o2)cc1
  -0.8 | .
- CCc1ccc2c(COC(=O)CSCc3c(C)noc3C)cc(=O)oc2c1
  -0.45 | .

Five compounds out of the list, sorted by number of heavy atoms, high to low:
Values in the order: AID504770 | CapD inh
- CCOc1ccc(N2C(=O)/C(=C\c3cc(OC)c(OC)cc3OC)S(=O)(=O)C2c2cccc([N+](=O)[O-])c2)cc1 (stereo not drawn)
  . | -0.28
- CCOC(=O)c1ccc(S(=O)(=O)N2CCN(CN3C(=O)CCC3=O)CC2)cc1
  1.3 | .
- CCC(=O)NCc1ccc(-c2nc3ncccc3o2)cc1
  -0.8 | .
- CC(C(=O)O)n1c2ccccc2c2cnn(C)c(=O)c21 (stereo not drawn)
  -0.9 | -0.67
- CCN1CCN(Cc2ccc(N)cc2)CC1
  -0.45 | -0.15
